# Screening results (PubChem BioAssay)
# Env fusion inh: blocks HIV Env-driven cell-cell fusion | HeLa-JRFL Env/CEM21 cell fusion, luciferase | 1.1% of 360,000 active | inhibition, % at 12.3 µM | AID 651610;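 active means mean replicate inhibition score of at least 50 and every replicate individually at or above 50; inconclusive means only one of the two criteria met; inactive means mean below 50 and not all replicates reaching 50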;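 further: 0% = plate neutral controls and 100% = maraviroc near 300 nM; one replicate is shown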
# Numbers without * were called inactive; ? = inconclusive; [ ] = dose if it differs, or a comment. A portion of the library; count on the stated rates, not on these rows.
no.	smiles	Env fusion inh
1	C[C@H]1CN([C@@H](C)CO)C(=O)CCCn2cc(nn2)CO[C@@H]1CN(C)Cc1ccc(C(F)(F)F)cc1	-9.8[16.7 µM]
2	CC(C)NC(=O)Nc1ccc2c(c1)C(=O)N([C@H](C)CO)C[C@@H](C)[C@H](CN(C)C(=O)NC1CCCCC1)OCCCC[C@@H](C)O2	20.0[16.7 µM]
3	CC(C)NC(=O)Nc1ccc2c(c1)CC(=O)N([C@@H](C)CO)C[C@H](C)[C@@H](CN(C)CC1CC1)O2	3.5[16.7 µM]
4	C[C@@H]1CN([C@H](C)CO)C(=O)Cc2cc(NS(=O)(=O)c3ccc(Cl)cc3)ccc2O[C@@H]1CN(C)Cc1ccc(C(=O)O)cc1	6.9[16.7 µM]
5	O=C(Nc1cc(F)ccc1F)N[C@H]1CC[C@H](CCn2cc(C3CC3)nn2)O[C@@H]1CO	-7.5[16.7 µM]
6	CN(C)CC(=O)Nc1ccc2c(c1)[C@@H]1C[C@H](CC(=O)NCc3ccc4c(c3)OCO4)O[C@@H](CO)[C@@H]1O2	2.0[16.7 µM]
7	CC(=O)C1=C(C)N(Cc2ccc(F)cc2)C(=S)NC1c1cccc(F)c1 (stereo not given)	?
8	C[C@@H]1CCCCO[C@H](CN(C)C)[C@H](C)CN([C@H](C)CO)C(=O)c2cc(N(C)C)ccc2O1	7.7[16.7 µM]
9	CCNC(=O)N1CCN(c2ccc(N3CCN(C(=O)NCC)[C@@H](C)C3)c(C)c2)[C@@H](C)C1	-10.1
10	CCCNC(=O)C[C@H]1CC[C@H]2[C@@H](COC[C@@H](O)CN2Cc2ccccc2F)O1	-11.1[16.7 µM]
11	C[C@@H]1CN([C@@H](C)CO)C(=O)c2cc(NS(C)(=O)=O)ccc2O[C@@H](C)CCCCO[C@@H]1CN(C)Cc1ccccc1	1.0[16.7 µM]
12	COC(=O)[C@@H]1[C@@H](CO)[C@@H]2Cn3c(ccc(-c4cccc(OC)c4)c3=O)[C@@H]2N1Cc1nccs1	8.5[16.7 µM]
13	CO[C@H]1CC[C@H]2CCOc3ccc(C#N)cc3C(=O)N(C)C[C@H](C)C(=O)N(C)C[C@@H]1O2	-11.3[16.7 µM]
14	C[C@@H]1CCCCO[C@@H](CN(C)C)[C@@H](C)CN([C@H](C)CO)C(=O)c2cc(N(C)C)ccc2O1	0.8[16.7 µM]
15	COc1cccc(S(=O)(=O)Nc2ccc3c(c2)OC[C@@H](C)N(C(=O)Cc2cccnc2)C[C@@H](C)[C@@H](OC)CN(C)C3=O)c1	15.6[16.7 µM]
16	C[C@H](CO)N1C[C@H](C)[C@H](CN(C)Cc2ccc(Cl)c(Cl)c2)Oc2ccc(NC(=O)c3ccncc3)cc2C1=O	10.8[16.7 µM]
17	CN(C)c1ccc2c(c1)[C@H]1C[C@@H](CC(=O)N3CCc4ccccc4C3)O[C@@H](CO)[C@H]1O2	4.2[16.7 µM]
18	C[C@H]1CN([C@@H](C)CO)C(=O)c2cccc(NS(=O)(=O)c3cccs3)c2O[C@H]1CN(C)CC1CCCCC1	8.4[16.7 µM]
19	O=C(C[C@H]1C[C@H]2c3cc(NC(=O)Cc4ccncc4)ccc3O[C@H]2[C@@H](CO)O1)NCc1ccccn1	-5.3[16.7 µM]
20	COc1ccccc1CNC(=O)C[C@H]1C[C@@H]2c3cc(NC(=O)c4cccnc4)ccc3O[C@@H]2[C@@H](CO)O1	89.7*[16.7 µM]
21	O=C(C[C@@H]1CC[C@H]2[C@@H](COC[C@@H](O)CN2C(=O)c2ccccc2F)O1)NCc1ccc(Cl)c(Cl)c1	29.7[16.7 µM]
22	C[C@H]1CN([C@@H](C)CO)C(=O)c2cc(-c3ccncc3)cnc2O[C@H]1CN(C)C(=O)C1CCC1	3.6[16.7 µM]
23	CC(=C1SC(=S)NC1=O)c1ccc(Cl)c(O)c1	-0.4
24	CN(C)CC(=O)Nc1ccc2c(c1)[C@@H]1C[C@@H](CC(=O)NCc3ccc(-c4ccccc4)cc3)O[C@H](CO)[C@@H]1O2	-5.1[16.7 µM]
25	CO[C@H]1CN(C)C(=O)c2cc(NS(=O)(=O)c3cn(C)cn3)ccc2OC[C@H](C)N(C)C[C@H]1C	-3.0[16.7 µM]
26	O=C(C[C@H]1CC[C@H]2[C@@H](COC[C@H](O)CN2Cc2cccc(Cl)c2)O1)Nc1nccs1	-0.2[16.7 µM]
27	COc1cccc(C(=O)N[C@H](C(=O)N2CCC[C@H]2C(=O)NCc2ccccc2)C(C)C)c1	14.8
28	CO[C@H]1CN(C)C(=O)c2cc(NC(=O)c3ccccc3F)ccc2OC[C@@H](C)N(CC2CCOCC2)C[C@H]1C	-9.2[16.7 µM]
29	C[C@H](CO)N1C[C@H](C)[C@H](CN(C)C(=O)Nc2ccc(F)cc2)Oc2ccc(NC(=O)Cn3cnnn3)cc2CC1=O	-3.6[16.7 µM]
30	C[C@@H]1CCCCO[C@@H](CN(C)C(=O)CCC(F)(F)F)[C@H](C)CN([C@@H](C)CO)C(=O)c2cc(NS(=O)(=O)c3ccc(Cl)cc3)ccc2O1	-30.6[16.7 µM]
31	CC(C)[C@@H](C)NC(=O)N(C)C[C@@H]1OCc2ccccc2-c2ccccc2C(=O)N([C@H](C)CO)C[C@H]1C	-1.0[16.7 µM]
32	C[C@@H]1CN([C@H](C)CO)C(=O)c2ccccc2-c2ccccc2CO[C@H]1CN(C)S(=O)(=O)c1ccc(C(F)(F)F)cc1	10.9[16.7 µM]
33	C/C=C/c1ccccc1[C@H]1[C@H](C#N)N(C(=O)c2cccnc2)[C@H]1CO	-8.9[16.7 µM]
34	CO[C@H]1CC[C@H]2CCOc3c(C#N)cccc3C(=O)N(C)[C@@H](C)C(=O)N(C)C[C@H]1O2	-19.2[16.7 µM]
35	C[C@@H]1CN([C@@H](C)CO)S(=O)(=O)c2ccc(C#CC(C)(C)O)cc2O[C@@H]1CN(C)C(=O)C1CC1	-6.1[16.7 µM]
36	O=C(C[C@H]1C[C@@H]2c3cc(NC(=O)C4CCOCC4)ccc3O[C@@H]2[C@@H](CO)O1)NCC(F)(F)F	1.0[16.7 µM]
37	NC(=O)c1ncn([C@@H]2O[C@H](C(=O)N3CCN(CC(=O)Nc4ccccn4)CC3)[C@@H](O)[C@H]2O)n1	-9.6
38	COc1ccc2c3c(n(C)c2c1)[C@@H](CO)N(C(=O)Nc1ccc(F)cc1)CC31CN(C(=O)c2ccc3c(c2)OCO3)C1	21.0[16.7 µM]
39	CC(=O)C1=C(C)N(Cc2ccc(F)cc2)C(=S)NC1c1ccccc1 (stereo not given)	-31.5
40	COc1ccc(S(=O)(=O)Nc2ccc3c(c2)[C@@H]2C[C@H](CC(=O)NCC4CC4)O[C@H](CO)[C@@H]2O3)cc1	-3.5[16.7 µM]

# Other records:
item | canonical_smiles | Env fusion inh
41 | COc1cccc(CNC(=O)[C@H]2CCCN2C(=O)[C@H]2CCCN2C(=O)c2ccc(F)c(F)c2)c1 | -24.6
42 | COC(=O)[C@]12C[C@H](CC(=O)N3CCN(C(=O)c4ccco4)CC3)C(=O)N(Cc3ccccc3)C1=C[C@H](C1CCCC1)O[C@@H]2C | 6.7
43 | C[C@@H]1CN([C@H](C)CO)C(=O)c2cc(N(C)C)ccc2O[C@@H](C)CCCCO[C@H]1CN(C)Cc1ccc2c(c1)OCO2 | 3.8[16.7 µM]
44 | CC(C)NC(=O)Nc1ccc2c(c1)CC(=O)N([C@H](C)CO)C[C@H](C)[C@@H](CN(C)C)O2 | 10.9[16.7 µM]
45 | COc1ccccc1Cc1c(-c2cccc(Cl)c2)nc2c3ccccc3ccn12 | -74.3
46 | O=C(NCCc1ccncc1)[C@@H]1N[C@@H]2c3ccc(/C=C/c4ccccc4)c(=O)n3C[C@@H]2[C@H]1CO | -1.1[16.7 µM]
47 | CC(=O)N(C)C[C@H]1Oc2ncc(C#Cc3ccc(F)cc3)cc2C(=O)N([C@@H](C)CO)C[C@@H]1C | 4.3[16.7 µM]
48 | CC(C)(C)[S@](=O)N1Cc2cc(C(=O)NCCc3ccncc3)nc(-c3cccc(-c4cccc(C#N)c4)c3)c2[C@@H]1CCO | 2.0[16.7 µM]
49 | O=C(NCC[C@H]1CC[C@H](NC(=O)C2CCOCC2)[C@@H](CO)O1)c1cc(Cl)cc(Cl)c1 | -135.1[16.7 µM]
50 | CC(C)NC(=O)Nc1ccc2c(c1)C(=O)N([C@H](C)CO)C[C@H](C)[C@@H](CN(C)C(=O)NC1CCCCC1)OCCCC[C@@H](C)O2 | -0.5[16.7 µM]
51 | CC(=O)N1CCN(c2ccc(N3CCN(C(C)=O)[C@H](C)C3)c(C)c2)[C@H](C)C1 | -8.2
52 | C=CCNC(=O)[C@@H]1[C@H]2C(=O)O[C@H](c3ccccc3)[C@H](c3ccccc3)N2[C@H](c2ccc(OCCO)cc2)[C@@]12C(=O)Nc1ccc(C#CCCO)cc12 | -51.6[16.7 µM]
53 | C[C@@H]1CN([C@@H](C)CO)C(=O)Cc2cc(NS(C)(=O)=O)ccc2O[C@H]1CN(C)Cc1ccc(-c2ccccc2)cc1 | 27.7[16.7 µM]
54 | C[C@H](NC(=O)N(C)C[C@@H]1OCc2ccccc2-c2ccccc2C(=O)N([C@H](C)CO)C[C@@H]1C)c1ccccc1 | -0.4[16.7 µM]
55 | C[C@@H]1CN([C@H](C)CO)C(=O)c2cc(NC(=O)c3ccncc3)ccc2O[C@@H](C)CCCCO[C@H]1CN(C)C(=O)c1ccncc1 | 3.6[16.7 µM]
56 | CN(C)CCCNC(=O)[C@@H]1[C@@H](CO)[C@@H]2Cn3c(ccc(-c4ccccc4)c3=O)[C@H]1N2C(=O)CC1CC1 | 17.7[16.7 µM]
57 | C[C@@H]1NS(=O)(=O)c2ccc(F)cc2O[C@@H]1c1ccccc1 | 9.0
58 | C#CCN1CC(COCCCC)Oc2cccc(Oc3ccc(C(C)(C)C)c(C)c3)c2S1(=O)=O (stereo not given) | 24.4
59 | COc1cccc(CNC(=O)[C@H]2[C@H](CO)[C@H]3Cn4c(ccc(-c5cncnc5)c4=O)[C@@H]2N3C(C)=O)c1 | -2.8[16.7 µM]
60 | C[C@@H]1CN([C@H](C)CO)C(=O)Cc2cc(N(C)C)ccc2O[C@@H]1CN(C)S(=O)(=O)c1ccccc1 | -3.8[16.7 µM]
61 | Cc1noc(C)c1S(=O)(=O)N(C)C[C@@H]1Oc2ccc(NS(=O)(=O)c3ccc(F)cc3)cc2C(=O)N([C@@H](C)CO)C[C@@H]1C | -3.4[16.7 µM]
62 | CCCNC(=O)N1C[C@@H](O)COC[C@@H]2O[C@H](CC(=O)N3CCC(Cc4ccccc4)CC3)CC[C@H]21 | 13.2[16.7 µM]
63 | COc1ccccc1S(=O)(=O)N(C)C[C@H]1OCc2ccccc2-c2c(n(C)c3ccccc23)C(=O)N([C@@H](C)CO)C[C@@H]1C | 11.3[16.7 µM]
64 | C[C@@H]1CCCCO[C@H](CN(C)C)[C@H](C)CN([C@@H](C)CO)C(=O)c2cc(NC(=O)NC3CCCCC3)ccc2O1 | -1.5[16.7 µM]
65 | C[C@H](CO)N1C[C@H](C)[C@@H](CN(C)C(=O)[C@@H]2CCCN2C)OCc2ccccc2-c2c(n(C)c3ccccc23)C1=O | -14.0[16.7 µM]
66 | CC=Cc1ccc2n(c1=O)C[C@H]1[C@H](CO)[C@@H](C(=O)NC3CCC3)[C@@H]2N1S(=O)(=O)c1cn(C)cn1 (mixture of isomers) | 2.6[16.7 µM]
67 | C[C@H]1CN([C@@H](C)CO)C(=O)c2cccc(NS(C)(=O)=O)c2O[C@@H]1CN(C)Cc1ccc(Cl)c(Cl)c1 | 8.9[16.7 µM]
68 | O=C(C[C@H]1C[C@H]2c3cc(NC(=O)Nc4ccc(C(F)(F)F)cc4)ccc3O[C@H]2[C@H](CO)O1)NCc1cccnc1 | 1.5[16.7 µM]
69 | COc1ccc(CNS(=O)(=O)c2ccccc2Br)c(OC)c1 | -1.2
70 | C[C@H](CO)N1C[C@H](C)[C@H](CN(C)Cc2cccnc2)OCc2cnnn2CCCC1=O | 7.6[16.7 µM]
71 | Cc1cc(N2CCNC[C@@H]2C)ccc1N1CCN(Cc2ccccc2)[C@@H](C)C1 | 15.7
72 | C[C@@H]1CCCCO[C@@H](CN(C)Cc2ccc(Cl)c(Cl)c2)[C@@H](C)CN([C@H](C)CO)C(=O)c2cc(N(C)C)ccc2O1 | -6.3[16.7 µM]
73 | COC(=O)[C@]12C[C@H](CC(=O)NCc3ccc(OC)c(OC)c3)C(=O)N(CCC3=CCCCC3)C1=C[C@H](C(C)(C)C)O[C@@H]2C | 82.3*
74 | CO[C@H]1CC[C@@H]2CCN(C)C(=O)[C@H](C)[C@@H](OC)CN(C)C(=O)c3cc(C#N)ccc3OC[C@H]1O2 | -3.6[16.7 µM]
75 | O=C(Cc1ccncc1)Nc1ccc2c(c1)[C@H]1C[C@@H](CC(=O)N3CCc4ccccc4C3)O[C@@H](CO)[C@H]1O2 | 1.4[16.7 µM]
76 | O=C(Nc1ccccc1F)N[C@@H]1CC[C@H](CCNC(=O)C2CCCCC2)O[C@@H]1CO | 23.7[16.7 µM]
77 | C[C@@H]1CN([C@@H](C)CO)C(=O)c2cc(NC(=O)C3CCCCC3)ccc2O[C@@H](C)CCCCO[C@H]1CN(C)C | -18.7[16.7 µM]
78 | CO[C@H]1CN(C)C(=O)c2ccc(NS(=O)(=O)c3ccc(C)cc3)cc2OC[C@H](C)N(Cc2nccs2)C[C@@H]1C | -351.7[16.7 µM]
